Compound activity deposited in PubChem by several laboratories.
Vif TR-FRET: inhibitors of Vif binding to APOBEC3G peptide, primary screen, biochemical, TR-FRET, GST-Vif 1-94, biotin-A3G peptide, dose response retest (AID 1117319). TR-FRET GST-Vif / biotin-A3G peptide binding; higher % means a stronger effect; test concentration not given here; strong numbers were not always called active. inhibition, %, or IC50 in µM where a hit was titrated. actives 0.57% (n = 260,000);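 active = above the screen mean plus three standard deviations and confirmed in dose response; inconclusive = results disagree or hit not tested in dose response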;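 note: Vif residues 1-94 fused to GST binding biotinylated APOBEC3G peptide 110-148; 0% = full assay without inhibitor and 100% = GST in place of GST-Vif; retest series ran down from 100 µM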
Calb FLC: affects C. albicans growth with fluconazole; AID 1979; growth inhibition, % (no concentration beside the values); actives 0.57% (n = 300,000); C. albicans CaCi-2 (fluconazole-resistant clinical isolate) + fluconazole, Alamar Blue growth, 48 h;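 active = most replicates above 75%; inconclusive = exactly half above 75%; inactive = most below 75%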;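 note: all wells also contain fluconazole at 8 µg/ml as a sub-toxic cotreatment; 0% = median of DMSO wells and 100% = median of geldanamycin control wells; wells of about 8 µL received 7.5 nL stock; the first replicate is given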
Beta cell apopt: beta cell apoptosis inhibition; INS-1E cytokine-induced death, ATP luminescence, 48 h; percent of positive-control rescue, neutral wells zero; protection from apoptosis, % (test concentration not listed); actives 0.8% (n = 300,000); AID 435005;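 active = all replicates at 75% or more, or half of them and the mean; inconclusive = half reach 75% but not the mean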;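 note: 0% = cytokine-treated negative control wells and 100% = positive control rescue; higher means more ATP so stronger rescue from cytokine killing; wells of about 40 µL received 100 nL stock; the first replicate is given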
T cruzi inh: blocks replication of Trypanosoma cruzi | inhibition, % (concentration not given with the values) | actives 1.4% (n = 300,000) | T. cruzi beta-gal in NIH3T3, luminescence, 90 h | AID 1885;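 active = mean inhibition across valid replicates above about 55%, limit read from the data; inconclusive = mean below that limit but half or more replicates reach it; inactive = mean below it, under half of replicates reach it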;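 note: signal also drops with host cell toxicity which is not excluded here; 0% = plate median of DMSO wells and 100% = zero luminescence signal; higher percent means less beta-gal luminescence so fewer parasites; stock transfer was 50 nL into about 50 µL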
RanGTP-Impb inh: inhibitors of RanGTP-importin-beta interaction, primary screen, biochemical, FRET, CFP-Ran, YFP-importin-beta, homogeneous. cell-free CFP-Ran/YFP-importin-beta FRET ratio. inhibition, % (no concentration beside the values). actives 1.1% (n = 300,000);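 active = most replicates above 15%; inconclusive = exactly half above 15%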;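 note: 0% = DMSO wells and 100% = Ran loaded with GDP instead of GTP; wells of about 40 µL received 100 nL stock; the first replicate is given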
AF4-AF9 inh: MLL-AF4/AF9 protein interaction inhibition | P42568 | inhibition, % at 10 µM | AlphaScreen, biotin-AF4 peptide binding to FLAG-AF9 | AID 651704 | actives 0.47% (n = 350,000);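 active = every replicate reaching a set inhibition limit, whatever the replicate mean, cut at about 25% in these data; inconclusive = mean inhibition reaches that limit but some replicates miss it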;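 note: 0% = plate neutral control median and 100% = total signal loss; the record names both 10 and 1 µM as test concentration; the first replicate is given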
Target sequence (P42568 whole entry, looked up): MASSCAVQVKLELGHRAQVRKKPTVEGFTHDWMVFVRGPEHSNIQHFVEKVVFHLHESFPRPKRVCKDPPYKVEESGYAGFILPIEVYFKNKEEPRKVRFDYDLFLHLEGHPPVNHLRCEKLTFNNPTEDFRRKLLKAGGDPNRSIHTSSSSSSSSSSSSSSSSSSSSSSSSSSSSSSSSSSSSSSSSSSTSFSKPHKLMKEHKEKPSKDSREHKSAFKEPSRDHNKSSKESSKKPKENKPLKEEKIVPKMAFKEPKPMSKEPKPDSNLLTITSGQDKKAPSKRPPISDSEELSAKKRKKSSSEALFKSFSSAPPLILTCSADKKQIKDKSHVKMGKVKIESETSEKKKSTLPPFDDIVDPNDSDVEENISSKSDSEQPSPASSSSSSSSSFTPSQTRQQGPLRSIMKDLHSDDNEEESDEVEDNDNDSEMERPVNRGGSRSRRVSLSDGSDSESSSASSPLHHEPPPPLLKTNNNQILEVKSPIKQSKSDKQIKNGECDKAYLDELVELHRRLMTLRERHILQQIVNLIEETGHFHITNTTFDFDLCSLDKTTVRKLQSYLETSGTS
Ecoli rRNA inh: inhibits bacterial ribosomal RNA function over humanized ribosomes; E. coli WT GFP vs humanized-ribosome RFP mutants, fluorescence, 24 h; hits give low values; DMSO median 0, no signal -100; GFP signal change (wild-type ribosome), % (concentration not given with the values); actives 1.6% (n = 350,000);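 active = significant combined selectivity score with lowered wild-type GFP, culture density cut under 30%, mutant RFP and density less affected; inactive = any of these conditions unmet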; note: one replicate is shown; some compounds called inactive have numbers as strong as hits
Bfl-1 A1 inh: inhibitors of the anti-apoptotic protein A1, read as caspase activation; MEF A1-2A-BIM cells, Caspase-Glo 3/7 luminescence, 3 h; percent of clofoctol response, vehicle zero; caspase activation, % (no concentration beside the values); actives 0.066% (n = 330,000);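 active = over half of replicate activation scores above 10%, or exactly half above 10 with the replicate mean above 10; inconclusive = replicate mean below 10 yet half the replicates above 10; inactive = over half of replicates below 10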;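 note: wells of about 30 µL received 50 nL stock; many hits fall short of the cut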
Ecoli rRNA inh OD600: further read-out of Ecoli rRNA inh, marked with its call; OD600 change, %; measured here: OD600 growth;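 optical density of the mix in the first replicate; 0 = DMSO median and -100 = no signal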
Ecoli rRNA inh RFP: also measured in Ecoli rRNA inh; calls as there; RFP signal change, %; measured here: RFP humanized mutant strains;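 first replicate; 0 = DMSO median and -100 = no signal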
Starred values were filed as active, the others as inactive; ? = inconclusive; · = not tested or not shown; & = joins results of further samples. Some of the compounds tested (hit frequency here may not be typical).

SMILES | Vif TR-FRET | Calb FLC | Beta cell apopt | T cruzi inh | RanGTP-Impb inh | AF4-AF9 inh | Ecoli rRNA inh | Ecoli rRNA inh OD600 | Ecoli rRNA inh RFP | Bfl-1 A1 inh
COC(=O)C1=C(N)Oc2cc(C)[nH]c(=O)c2C1c1ccccc1OC (stereo not given) | 13% | -7 | 1 | -17 | -2.9 | -4.5 | 18 | 11 | 2.3 | 1.6
CC(C)CNC(=O)c1ccccc1NC(=O)CCSc1ccccc1 | -3% | 9 | -8 | 11 | ? | -9.8 | 6 | 3 | 0.0 | -2.1
COc1ccc2nc(NC(=O)C3CCN(C(=O)c4ccco4)CC3)sc2c1 | · | 6 | -5 | 3 | -3.1 | 3.8 | -1 | -19 | -2.2 | -0.3
O=C(CN1CCN(S(=O)(=O)c2ccc(Cl)cc2)CC1)NC1CCCC1 | -1% | -17 | 2 | -8 | 4.3 | 1.3 | 2 | 2 | 2.1 | 0.9
Cn1c(C(=O)NC2CCCCC2)cc2c(=O)n3ccccc3nc21 | · | -4 | 0 | 2 | 2.5 | -4.4 | -3 | -1 | -0.9 | -0.6
CC(C)c1cc(O)c(-c2ccccc2)c(=O)n1-c1ccc(Cl)cc1 | · | -6 | -1 | · | -0.3 | -1.6 | · | · | · | -0.5
COc1ccc(-c2ncn(CCC#N)c2[N+](=O)[O-])cc1 | · | -5 | -6 | -10 | -1.6 | · | · | · | · | -0.5
Cc1cc(NS(=O)(=O)c2ccc(NC(=O)Cc3ccc([N+](=O)[O-])cc3)cc2)no1 | · | 0 | -3 | -10 | 6.6 | -4.5 | 4 | 10 | 0.4 | -0.1
CCn1nc(C)cc1C(=O)n1nc(C)c(Sc2ncccn2)c1C | 0% | -2 | · | · | 1.5 | -4.3 | 10 | 1 | -1.5 | 0.0
C[C@H](CO)N1C[C@H](C)[C@@H](CN(C)Cc2ccc3c(c2)OCO3)Oc2ccc(NS(C)(=O)=O)cc2C1=O | · | · | -11 | · | · | 0.1&-0.5 | 4&5 | 7&12 | 0.6&8.6 | ?
Cc1cc(N)n(-c2ccc([N+](=O)[O-])cc2)n1 | 11% | 7 | 0 | -13 | 2.3 | 2.6 | 5 | 16 | -1.3 | -0.3
COc1ccc(-c2nnc(SC(C(=O)c3c[nH]c4ccccc34)c3ccccc3)n2N)cc1OC (stereo not given) | 4% | -2 | -11 | 18 | 1.9 | -1.6 | 9 | 3 | 3.8 | 1.6
O=C(COC(=O)/C=C/c1cccc(Cl)c1)NC1CCCC1 | -1% | · | 5 | · | · | 1.7 | 6 | 14 | 1.6 | -0.4
O=C(N/N=C/c1ccc(F)c(F)c1)c1cc2c(s1)-c1ccccc1CC2 | 4% | -4 | -4 | 4 | -6.4 | · | · | · | · | 0.4
Cc1ccc(NC2=C(C(=O)c3ccccc3)N(C)S(=O)(=O)c3ccccc32)cc1 | 5% | -17 | 12 | 29 | -5.9 | · | · | · | · | 0.6
CCC(=O)c1ccc(OCC(=O)N2CCN(C(=O)c3ccccc3)CC2)cc1 | -14% | · | 0 | · | · | 0.9 | -54 | -56 | -4.2 | -0.4
CN(c1ccccc1)S(=O)(=O)c1cccc(NC(=O)CCNC(=O)c2ccccc2)c1 | -2% | · | 1 | · | · | 2.6 | -17 | -31 | -1.3 | 1.4
COc1ccc(-c2sc3ccc(OC)cc3c2-c2ccc(OC)nc2)cc1 | · | · | 4 | · | · | 2.0 | 4 | -1 | -0.2 | 0.5
CCCN(CC1CCCO1)C(=O)c1cc(COc2ccc(F)cc2F)on1 (stereo not given) | · | 0 | -4 | 4 | ? | -2.4 | -3 | 3 | 0.6 | 0.2
O=C(CSc1nnc(COc2ccccc2)n1Cc1ccco1)NCc1ccco1 | 28% | -17 | · | -9 | 3.4 | · | · | · | · | 1.0
COc1ccc(/C(N)=N/OC(=O)c2cc(-c3ccccc3)nc3ccccc23)cc1 | -1% | -9 | 0 | -11 | 0.4 | · | · | · | · | 1.8
c1cncc(-c2nnc(-c3ccco3)o2)c1 | 28% | -5 | 0 | -4 | 0.2 | -55 | 5 | 11 | -0.7 | 0.3
Cc1ccc(OCC(=O)Nc2ccc(S(=O)(=O)N3CCCCC3)cc2)c([N+](=O)[O-])n1 | -5% | -6 | 0 | 21 | 1.5 | -2.3 | 15 | 4 | -1.9 | 1.4
Cc1cc(C)n(-c2ccc(C(=O)OCC(=O)NCc3ccco3)cc2)n1 | 18% | 16 | -3 | -1 | 4.1 | · | · | · | · | 0.7
COc1ccc(/C=N/NC(=O)c2ccc(N(C)S(=O)(=O)c3ccccc3)cc2)cc1OC | · | -4 | · | -2 | -1.2 | · | · | · | · | 2.2
CCOC(=O)c1cccc(NC(=O)Cn2cnc3c2c(=O)n(C)c(=O)n3C)c1 | 2% | -2 | 5 | -4 | ? | · | · | · | · | 0.4
COc1cccc(COC(=O)C2CCN(S(=O)(=O)c3ccc(Cl)cc3)CC2)c1OC | 1% | 2 | -2 | -3 | 3.9 | -1.7 | -6 | -8 | 0.7 | -0.5
Cc1ccc(C(=O)Nc2nnc(-c3ccc(C(C)(C)C)cc3)s2)cc1 | 15% | 20 | -8 | 9 | 1.5 | · | · | · | · | 0.9
COc1ccc(Cl)cc1C(=O)NC(C)C | -8% | 0 | 22 | -4 | 1.4 | -2.0 | 13 | 11 | 0.3 | -0.1
Cc1cc(NC(=O)CSc2nnc(C)o2)no1 | · | 3 | -7 | -18 | 5.1 | -0.7 | 14 | 21 | 4.3 | 0.5
O=C(Nc1ccc(F)cc1F)c1ccc(S(=O)(=O)N2CCCCC2)cc1 | · | 1 | -5 | -6 | -1.1 | -2.8 | -2 | -1 | 0.3 | 1.1
c1ccc(-n2cc(CN3CCC(N4CCOCC4)CC3)c(-c3ccc4c(c3)OCO4)n2)cc1 | 19% | 2 | -6 | -17 | -0.2 | 8.3 | 10 | -2 | 0.9 | 0.4
N#CCC(=O)N1CC2(CC(c3cccc(NC(=O)COc4ccc(Cl)cc4)c3)=NO2)C[C@@H]1C(N)=O (stereo not given in full) | ? | 5 | 0 | -20 | -8.0 | -0.9 | 2 | 7 | -1.4 | -0.5
CCOC(=O)N1CCN(c2c(Nc3cc(C)[nH]n3)c(=O)c2=O)CC1 | -1% | -3 | 2 | -2 | -0.6 | -2.3 | 12 | 13 | -0.4 | 0.2
Cc1cccc(N2CCN(C(=O)c3ccc4nc(N5CCCCC5)sc4c3)CC2)c1C | -7% | 14 | 12 | 39 | -3.8 | 3.9 | -2 | 1 | 4.7 | -0.4
S=c1[nH]nc(-c2cccc(Cl)c2)n1Cc1ccccc1 | -6% | 18 | 4 | -19 | -0.2 | · | · | · | · | 0.4
Cc1ccc(-c2cc(-c3ccccc3)[nH]c(=S)c2C#N)cc1 | 5% | -9 | -11 | 27 | -1.5 | · | · | · | · | 1.0
O=C(O)c1ccc(N=NN2CCCCC2)cc1 | -2% | -8 | 4 | -8 | ? | -2.2 | 5 | 3 | -4.6 | -7.7
Cc1cc(-c2ccc(/C=N/n3cnnc3)o2)c(C)c([N+](=O)[O-])c1 | -10% | 38 | 9 | 9 | 1.6 | 1.9 | -16 | -7 | -5.1 | -0.7
CC(C)CC(NS(=O)(=O)c1ccc2c(c1)oc(=O)n2C)C(=O)NCc1cccnc1 (stereo not given) | -2% | -4 | -1 | -10 | 2.7 | -9.2 | 4 | 5 | 1.0 | -0.1

Exported with values under each structure: 3 of the compounds above
Order of results: Vif TR-FRET | Calb FLC | Beta cell apopt | T cruzi inh | RanGTP-Impb inh | AF4-AF9 inh | Ecoli rRNA inh | Ecoli rRNA inh OD600 | Ecoli rRNA inh RFP | Bfl-1 A1 inh
- COc1ccc(Cl)cc1C(=O)NC(C)C
  -8% | 0 | 22 | -4 | 1.4 | -2.0 | 13 | 11 | 0.3 | -0.1
- Cc1ccc(C(=O)Nc2nnc(-c3ccc(C(C)(C)C)cc3)s2)cc1
  15% | 20 | -8 | 9 | 1.5 | · | · | · | · | 0.9
- Cc1cc(NC(=O)CSc2nnc(C)o2)no1
  · | 3 | -7 | -18 | 5.1 | -0.7 | 14 | 21 | 4.3 | 0.5

The list continues.
SMILES | Vif TR-FRET | Calb FLC | Beta cell apopt | T cruzi inh | RanGTP-Impb inh | AF4-AF9 inh | Ecoli rRNA inh | Ecoli rRNA inh OD600 | Ecoli rRNA inh RFP | Bfl-1 A1 inh
CCOC(=O)CSc1nnc(-c2cccnc2)n1C | 19% | 6 | -10 | -9 | -7.3 | 7.3 | 29 | 24 | 1.8 | 0.2
Cc1ccc(/C=N/n2c(COc3ccccc3)n[nH]c2=S)o1 | -8% | 27 | -4 | 2 | 2.4 | -14 | 3 | -7 | 6.6 | 0.7
COc1ccc(CC(=O)OCC(=O)NCc2ccccc2Cl)cc1 | 1% | ? | · | -25 | -0.7 | 3.0 | -5 | -1 | 4.2 | 0.1
COc1cc(C=O)cc(OC)c1OS(=O)(=O)c1ccc(NC(C)=O)cc1 | 24% | -4 | 4 | -9 | -2.0 | · | · | · | · | 0.1
CSc1nnc(-c2cc3c(-c4ccccc4)nn(C)c3s2)n1C | 5% | -2 | 4 | 8 | 1.4 | · | · | · | · | ?
CCCOc1ccc(S(=O)(=O)N2CCOCC2)cc1[N+](=O)[O-] | · | 6 | -2 | 7 | 0.4 | 1.0 | -5 | 5 | -1.9 | 1.1
Clc1cccc(OCc2nc(-c3ccncc3)n[nH]2)c1 | 1% | 30 | -4 | -6 | 1.1 | -0.7 | -22* | 16* | -2.5* | 0.8
COc1ccc(-n2c(-c3ccco3)nc3c(cnn3-c3ccccc3C)c2=O)cc1 | · | -6 | 0 | 7 | -1.5 | -2.9 | 4 | -3 | -0.6 | 0.7
Nc1ccc(C(=O)OCC(=O)c2cccc([N+](=O)[O-])c2)cc1 | 5% | -18 | -2 | -3 | -1.2 | -1.0 | 1 | 2 | -1.2 | 0.9
COc1ccccc1C(=O)NC(CCSC)C(=O)OCC(=O)c1ccc[nH]1 (stereo not given) | 22% | -11 | -5 | -2 | -0.6 | 1.5 | 2 | -16 | -3.9 | -0.9
Cc1ccc(Nc2nc(CSc3nnc(-c4ccccc4)n3C)cs2)cc1 | -4% | -13 | 2 | 6 | 1.8 | · | · | · | · | -0.4
Cn1c(=O)n(CCOc2ccc([N+](=O)[O-])cc2)c2ccccc21 | 0% | -7 | 1 | -8 | 0.7 | 2.0 | 18 | -5 | -5.3 | -0.2
